Screening results as filed in PubChem BioAssay.
Menin MLL FP FL: qHTS Assay for Inhibitors Targeting the Menin-MLL Interaction in MLL Related Leukemias: Competition With Fluorescein Labeled MLL-derived Peptide; 290,000 tested, under 10 active; FP activity change, % at 61.4 µM; Fluorescence polarization, fluorescein-MLL peptide displacement from menin; inconclusive = falling polarisation curve, or a change in total fluorescence; inactive = total fluorescence flat and polarisation flat or rising; no compound was filed as active; the % refers to the polarisation; negative = inhibition;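 also: % of control where 0% means no effect; inhibitors lower the polarisation; unlabelled MLL peptide was the positive control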
Sfp inh: qHTS Assay for Inhibitors of Bacillus subtilis Sfp phosphopantetheinyl transferase (PPTase); 4'-phosphopantetheinyl transferase ffp (Bacillus subtilis), Q9F4F7; Biochemical Sfp PPTase activity, qHTS; Potency, µM, inactives show max response, negative = inhibition, most hits filed as inhibitors; 310,000 compounds, 3.5% hits; AID 1490, 2009; active = well fitted inhibition curve with a large enough effect; inconclusive = small, poorly fitted or top-dose-only effect, or another doubt; inactive = no such curve, though single readings can be large or run the other way;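 also: the enzyme is Sfp with the accession as filed and its product quenches rhodamine fluorescence; potency is read from the fitted curve at half-maximal effect; 0% = enzyme reaction without inhibitor and -100% = no enzyme wells; top concentration of the series not given in the record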
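Fluorescence-quenching assay: 15 nM Sfp-PPTase preincubated 15 min at room temperature with compound, then 5 uM rhodamine-CoA and 12.5 uM BHQ-2-labelled YbbR peptide added. Fluorescence (ex 525/em 598 nm) read at start and after 30 min; difference gives rate.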
gsp ag: qHTS for Agonist of gsp, the Etiologic Mutation Responsible for Fibrous Dysplasia/McCune-Albright Syndrome: qHTS. Potency, µM (titrated, usually from 76.9 µM), for the others: top-dose activation (cAMP increase), most hits filed as activators. 340,000 compounds, 0.13% hits. gsp mutant cells, cAMP HTRF, 30 min; control for the full effect not named in the record. AID 624287, 2012; active = well fitted activation curve with a large enough effect; inconclusive = small, poorly fitted or top-dose-only effect, or another doubt; inactive = no such curve, though single readings can be large or run the other way; cell line not stated here;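 also: phosphodiesterase inhibitor Ro 20-1724 added with compounds to block cAMP breakdown; potency is read from the fitted curve at half-maximal effect; nearly all actives have a fitted effect of over 60% in size; about a fifth of the inactives were tested at one dose only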
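Cells stably selected in G418 were plated at 2000/well, grown 16-24 hr, then given compounds in DMSO with the PDE inhibitor […] (300 uM solution added) for 30 min at 37C; cAMP was read by HTRF.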
gsp antag: qHTS for Antagonists of gsp, the Etiologic Mutation Responsible for Fibrous Dysplasia/McCune-Albright Syndrome: qHTS | 340,000 compounds, 0.4% hits | gsp-mutant cells, cAMP HTRF, 30 min; control for the full effect not named in the record | Potency, µM (doses to about 76.9 µM), without a hit: at the highest dose activity change, negative = inhibition, most hits filed as inhibitors | AID 624288, 2012; active = falling curve of any shape with a large fitted effect; inconclusive = falling curve, mostly with a smaller effect; inactive = flat or rising curve; cell line not stated here;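 also: intracellular cAMP measured with PDE inhibitor Ro 20-1724 present during compound exposure; potency is read from the fitted curve at half-maximal effect; % is scaled to controls: 0 for no effect and ±100 for the full control effect; nearly all actives have a fitted effect of over 65% in size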
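HTRF cAMP read-out (cAMP-d2 plus anti-cAMP antibody-K in lysis buffer, 30 min RT). Before lysis, cells are exposed to compounds with […] for 30 min at 37C in DPBS containing Ca/Mg, BSA and Tween 20.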
CtBP-E1A blk: qHTS Assay for Inhibitors of the CtBP/E1A Interaction | CtBP / adenovirus E1A interaction (AlphaScreen) | AlphaScreen GST-E1A/His-CtBP binding, 1536-well; active compounds read low; control for the full effect not named in the record | activity change, % (concentration not given with the values) | 340,000 compounds, 0.49% hits; in the data active means activity change below about -65%; inconclusive means about -30% to -65%; inactive means above about -30%; also: % is scaled to controls: 0 for no effect and ±100 for the full control effect
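GST-E1A and His-tagged CtBP (125 nM each as 5X stock) were preincubated with pin-transferred compound for 2 h at 37 °C in the dark, then glutathione donor and nickel acceptor beads were added for 1 h before AlphaScreen reading.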
ClpP mod: qHTS Assay for Activators of ClpP; Potency, µM (top dose mostly 57.5 µM), without a hit: at the top dose activity change, negative = active; 340,000 compounds, 1.9% hits; ATP-dependent Clp protease proteolytic subunit (Bacillus subtilis (strain 168)), P80244; AID 651965, 2013; purified B. subtilis ClpP, FRET peptide cleavage, 20 min; active = well fitted falling curve with a large enough effect; inconclusive = small, poorly fitted or top-dose-only effect; inactive = no such curve, though single readings can be large or run the other way; also: potency is read from the fitted curve at half-maximal effect; the source files actives as falling curves though it sought activators and does not explain the sign; nearly all actives have a fitted effect of over 65% in size; many hits overshoot -100%
Target sequence (P80244 whole entry, looked up): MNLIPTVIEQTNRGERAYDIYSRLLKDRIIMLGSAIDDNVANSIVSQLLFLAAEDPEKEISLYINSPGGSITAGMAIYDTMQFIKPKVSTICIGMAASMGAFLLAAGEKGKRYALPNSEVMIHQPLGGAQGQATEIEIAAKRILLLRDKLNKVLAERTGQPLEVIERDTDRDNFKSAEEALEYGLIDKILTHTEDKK
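Purified B. subtilis ClpP, 10 microg/mL final in Tris/HCl pH8 with KCl, BSA, glycerol and Tween-20, cleaved an Abz/nitrotyrosine-quenched decapeptide. Fluorescence (ex 320, em 430) was read at 0 and 20 min at room temperature. Delta was normalized to 5.8 microM ADEP and DMSO/no-enzyme controls.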
TRPV1 PAM: HTS Assay for Compounds that Act as Potentiators of the Vanilloid Receptor 1; 320,000 compounds, 0.02% hits; TRPV1-expressing cells, Fluo-8 calcium influx, capsaicin EC20 potentiation; host cell line not named in the record; control for the full effect not named in the record; potentiation, % at 8.33 µM; Transient receptor potential cation channel subfamily V member 1 (Homo sapiens), Q8NER1; AID 540277, 2011; active means potentiation above 80%; inconclusive means 30% to 80%; inactive means below 30%; also: 0% is about no effect
Target sequence (Q8NER1 whole entry, looked up): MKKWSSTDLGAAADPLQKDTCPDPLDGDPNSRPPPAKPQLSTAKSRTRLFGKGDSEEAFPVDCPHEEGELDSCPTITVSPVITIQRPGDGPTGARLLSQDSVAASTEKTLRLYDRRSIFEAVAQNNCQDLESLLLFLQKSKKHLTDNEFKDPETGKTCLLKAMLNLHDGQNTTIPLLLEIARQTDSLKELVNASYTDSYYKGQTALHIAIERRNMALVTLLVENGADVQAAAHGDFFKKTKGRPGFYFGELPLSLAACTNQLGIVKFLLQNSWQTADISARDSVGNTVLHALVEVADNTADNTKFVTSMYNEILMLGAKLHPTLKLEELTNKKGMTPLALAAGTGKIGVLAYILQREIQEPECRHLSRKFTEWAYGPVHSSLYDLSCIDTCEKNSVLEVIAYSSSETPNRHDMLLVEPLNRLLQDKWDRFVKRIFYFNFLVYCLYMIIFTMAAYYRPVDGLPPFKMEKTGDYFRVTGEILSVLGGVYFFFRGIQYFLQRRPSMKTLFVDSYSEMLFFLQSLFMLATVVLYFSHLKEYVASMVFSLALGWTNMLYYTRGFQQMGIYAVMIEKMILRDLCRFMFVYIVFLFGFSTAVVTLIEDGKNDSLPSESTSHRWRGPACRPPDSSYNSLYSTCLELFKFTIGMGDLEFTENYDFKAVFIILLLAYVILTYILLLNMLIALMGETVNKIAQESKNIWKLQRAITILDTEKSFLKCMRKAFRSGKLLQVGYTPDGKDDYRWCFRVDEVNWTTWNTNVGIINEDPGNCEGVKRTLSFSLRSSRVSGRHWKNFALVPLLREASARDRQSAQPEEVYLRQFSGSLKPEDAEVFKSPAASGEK
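Fluo-8 calcium influx in TRPV1-expressing cells, kinetic read (ex 480/em 520 nm). Compound added and read 3 min for agonist activity, followed by capsaicin at EC20 final and 2 min further read for enhancement.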
The depositor's hits bear a star; [ ] = dose if it differs, or a comment.

O=c1c2c3c(sc2nc2n1CCCS2)CCCC3 was read as Menin MLL FP FL 1.3, Sfp inh -12%, gsp ag -29%, gsp antag -4%, CtBP-E1A blk -15, ClpP mod -23% and TRPV1 PAM 4.
`Cc1cc(C(=O)NNC(=O)c2ccc(Cl)c(S(N)(=O)=O)c2)c(C)o1` gave gsp ag 13%, gsp antag 2% and CtBP-E1A blk 4.
CCCc1nn(-c2cc(Cl)ccc2OC)c2c1C(=O)CCC2 was read as Menin MLL FP FL 4.4, Sfp inh 3%, gsp ag -90%, gsp antag -6%, CtBP-E1A blk -7, ClpP mod -5.0% and TRPV1 PAM -44.
`CSCC[C@H](NC(=O)OC(C)(C)C)c1nnc(SCC=C(C)C)o1` gave Menin MLL FP FL 0.5, Sfp inh -1%, gsp ag -10%, gsp antag 15%, CtBP-E1A blk 0, ClpP mod 0.5% and TRPV1 PAM -13.
COc1ccc(C(CNC(=O)COc2ccccc2)N2CCOCC2)cc1 (stereo not given) was read as gsp ag 2%, gsp antag 3%, CtBP-E1A blk 2, ClpP mod -1.9% and TRPV1 PAM 0.
For Cc1ccc2c(Cl)cc(Cl)c(OCC(=O)NCc3ccco3)c2n1 the results were Menin MLL FP FL 3.6, Sfp inh inconclusive and TRPV1 PAM -1.
CCN(c1ccccc1)S(=O)(=O)c1cc(C(=O)OCC(=O)c2c(N)n(C)c(=O)n(C)c2=O)ccc1C was read as gsp ag -7%, gsp antag -12%, CtBP-E1A blk -2 and ClpP mod -4.9%.
`COc1cccc(CN2CCNC(=O)C2CC(=O)NC2CCCCC2)c1OC` (stereo not given) gave Sfp inh 12%, gsp ag 25%, gsp antag 8%, CtBP-E1A blk 20, ClpP mod -2.5% and TRPV1 PAM 14.
Screening Cc1ccc(NC(=O)C(OC(=O)c2ccc(C=O)cc2)c2ccccc2)cc1Cl (stereo not given) returned Sfp inh 14%, gsp ag -7%[15.4 µM], gsp antag -4%, CtBP-E1A blk -5 and TRPV1 PAM -3.
COc1cc(/C=C2/NC(=O)N(Cc3ccccc3F)C2=O)ccc1Oc1ccc([N+](=O)[O-])cn1 was read as Menin MLL FP FL 7.0, Sfp inh 11%, gsp ag -36%[inhibitor], gsp antag -13%, CtBP-E1A blk 1, ClpP mod -1.1% and TRPV1 PAM 9.
CC1CCCCC12NC(=O)N(Cc1cc(=O)n3ccsc3n1)C2=O (stereo not given) was read as Menin MLL FP FL 2.3, Sfp inh 9%, gsp ag inconclusive, gsp antag 6%, ClpP mod inconclusive and TRPV1 PAM 8.
CC(C)COc1ccc(C(=O)OC2CC(C)(C)OCC2CN(C)C)cc1 (stereo not given) was read as Menin MLL FP FL 5.1, Sfp inh 4%, gsp ag -18%, gsp antag 6%, CtBP-E1A blk -7, ClpP mod 20µM* and TRPV1 PAM 11.
`O=C(N/N=C/c1cccnc1)c1ccccc1OCc1ccc(Br)cc1` gave Menin MLL FP FL -2.1, Sfp inh inconclusive, gsp ag -22%[15.4 µM], gsp antag -35%, CtBP-E1A blk -6 and TRPV1 PAM -5.
`COc1ccccc1NCC(=O)c1ccc(C)c(C)c1` gave Menin MLL FP FL -2.1, Sfp inh -17%, gsp ag -43%[inhibitor], gsp antag 6%, CtBP-E1A blk -18 and TRPV1 PAM -10.
`CCN(C(=O)COC(=O)Cn1c(C)csc1=O)c1c(N)n(Cc2ccccc2)c(=O)[nH]c1=O` gave gsp ag 4%[15.4 µM], gsp antag -4%, CtBP-E1A blk 12 and TRPV1 PAM -4.
For Cc1ccccc1NC(=O)c1c(C)cc(=O)oc1C the results were Menin MLL FP FL 4.6, Sfp inh 21%, gsp ag -39%[inhibitor], gsp antag -2%, ClpP mod 0.1% and TRPV1 PAM 0.
For CC1(C(=O)Nc2ccc3ccccc3c2)CC1(Br)Br (stereo not given) the results were Menin MLL FP FL -4.5, Sfp inh 0%, gsp ag -15%[15.4 µM], gsp antag 12%, CtBP-E1A blk 0 and TRPV1 PAM -2.
CC(NC(=O)CN(Cc1ccccc1)S(=O)(=O)c1ccccc1)c1cccnc1 (stereo not given) was read as gsp ag -2%, gsp antag -8%, CtBP-E1A blk -17, ClpP mod -2.9% and TRPV1 PAM -15.
For Cc1ccc(S(=O)(=O)N2CCN(CCc3ccccc3)CC2)c(C)c1 the results were Menin MLL FP FL -6.2, Sfp inh inconclusive, gsp ag -2%[15.4 µM], gsp antag 7%, CtBP-E1A blk 3, ClpP mod -0.8% and TRPV1 PAM -3.
For CC1CCN(C(=O)CNC(=O)Cc2ccccc2)CC1 the results were Menin MLL FP FL -2.4, Sfp inh -4%, gsp ag 3%, gsp antag 6%, CtBP-E1A blk 2, ClpP mod -1.5% and TRPV1 PAM 18.
For CC1C(C)C(O)(c2ccccc2)CCN1C (stereo not given) the results were Menin MLL FP FL -0.5, Sfp inh -1%, gsp ag -2%, gsp antag 1%, CtBP-E1A blk 5, ClpP mod -1.6% and TRPV1 PAM 8.
Screening Cc1noc(NS(=O)(=O)c2ccc(NC(=O)Cc3ccc([N+](=O)[O-])cc3)cc2)c1C returned Sfp inh 8%, gsp ag 12%, gsp antag inconclusive, CtBP-E1A blk 23, ClpP mod -0.5% and TRPV1 PAM -2.
`CC(C)(C)c1ccccc1OCCCCN1CCCC1` gave Menin MLL FP FL -1.9, Sfp inh 9%, gsp ag -25%, gsp antag 5%, CtBP-E1A blk 1, ClpP mod 1.5% and TRPV1 PAM 2.
For CCC1(C2=CCCCC2)C(=O)NC(=S)N=C1N (stereo not given) the results were gsp ag -2%, gsp antag -7% and CtBP-E1A blk -3.
`COC(=O)Cn1c(=NC(=O)c2ccc([N+](=O)[O-])s2)sc2cc(Br)ccc21` gave Menin MLL FP FL inconclusive, Sfp inh -13% and TRPV1 PAM inconclusive.
Screening C/C=C/c1cnc2c(c1)C(=O)N([C@@H](C)CO)C[C@H](C)[C@@H](CN(C)S(=O)(=O)c1ccc(C)cc1)O2 returned gsp ag -7%, CtBP-E1A blk -5 and ClpP mod -5.0%.
For CC(C(=O)Nc1ccccn1)(c1ccccc1)c1ccccc1 the results were Menin MLL FP FL 0.9, Sfp inh 8%, gsp ag 2%, gsp antag -12%, CtBP-E1A blk 17, ClpP mod -0.9% and TRPV1 PAM -17.
Screening Cc1nc2ncnn2c(C)c1CCC(=O)NC(C)c1ccc2c(c1)OCCO2 (stereo not given) returned Menin MLL FP FL 1.5, Sfp inh -1%, gsp ag 17%, gsp antag 8%, CtBP-E1A blk 9 and ClpP mod -1.7%.
Cc1ccc(NNC(=O)c2cccs2)cc1Cl was read as Menin MLL FP FL -1.4, Sfp inh 7%, gsp ag 1%, gsp antag -12%, CtBP-E1A blk 5 and TRPV1 PAM -15.
Screening O=C(N/N=C\c1cn(-c2ccccc2)nc1-c1ccccc1)c1ccc(Br)o1 returned Menin MLL FP FL -0.8, Sfp inh 17%, gsp ag 6%, gsp antag inconclusive, CtBP-E1A blk -14, ClpP mod inconclusive and TRPV1 PAM 18.
For O=C(Nc1cccc2c1CCCC2)c1ccc(Br)o1 the results were Menin MLL FP FL 0.6, Sfp inh 5%, gsp ag -21%, gsp antag 0%, CtBP-E1A blk 1, ClpP mod 1.1% and TRPV1 PAM -14.
`CCOC(=O)CSC1=C(C#N)C(c2sccc2C)CC(=O)N1` (stereo not given) gave Menin MLL FP FL 4.2, Sfp inh 10%, gsp ag 8%, gsp antag 3%, CtBP-E1A blk -8, ClpP mod 1.9% and TRPV1 PAM 6.
Screening CC(C)(C)NC(=O)NC(=O)COC(=O)C1(C)CC1(Cl)Cl (stereo not given) returned Menin MLL FP FL -5.0, Sfp inh 19%, gsp ag 7%[15.4 µM], gsp antag 11%, CtBP-E1A blk -13 and TRPV1 PAM -7.
`COc1ccccc1NC(=O)CSc1nc(N)cc(N)n1` gave Menin MLL FP FL 2.0, Sfp inh 21%, gsp ag -9%, gsp antag 8%, CtBP-E1A blk 6, ClpP mod -0.5% and TRPV1 PAM -23.
For O=C1Nc2ccc(C(=O)O)c(O)c2C1=O the results were gsp ag 2%, gsp antag 4% and CtBP-E1A blk -1.
`CCCCn1c(N)c(N(CCOC)C(=O)c2ccc(S(=O)(=O)N3CCCCCC3)cc2)c(=O)[nH]c1=O` gave gsp ag 3%, gsp antag 7%, CtBP-E1A blk -4, ClpP mod -4.9% and TRPV1 PAM inconclusive.
`Cc1c(NC(=S)NC(=O)c2cc3ccccc3o2)cccc1C(=O)O` gave Menin MLL FP FL -2.6, Sfp inh -7%, gsp ag 7%, gsp antag inconclusive, CtBP-E1A blk -6, ClpP mod -1.2% and TRPV1 PAM -3.
For COc1cccc(CN(C(=O)/C=C/c2ccc(Cl)cc2)C2CCS(=O)(=O)C2)c1 (stereo not given) the results were Menin MLL FP FL -0.2, Sfp inh 0%, gsp ag -3%[15.4 µM], CtBP-E1A blk -8 and TRPV1 PAM -2.
Cc1cccc(OCC(=O)N2CCN(C(=O)Cc3ccccc3)CC2)c1 was read as Menin MLL FP FL 7.5, Sfp inh 11%, gsp ag -69%[inhibitor], gsp antag -9%, CtBP-E1A blk -2, ClpP mod -0.9% and TRPV1 PAM 6.
Screening OCc1nnn(-c2ccccc2)c1CO returned Menin MLL FP FL 2.1, Sfp inh 23%, gsp ag -33%[inhibitor], gsp antag 3%, ClpP mod -1.8% and TRPV1 PAM -2.
